# Bioassay records as filed in PubChem.
# AID504770 = growth inhibition of E. coli YBA685, primary screen, V. cholerae RctB inhibitors; E. coli YBA685 rctB-dependent plasmid, OD600 growth, 3 h; stronger effect = lower value; z-score (concentration not given with the values); hit rate 0.27% among 130,000; AID 504770, 2011;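 active means z-score under -2 on both plates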;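 further: wells of about 30 µL received 100 nL stock; score is relative to mean and SD of the test wells; the first replicate is given; strong numbers were not always called active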
# Ba CapD inh = Bacillus anthracis CapD inhibitors, primary screen, biochemical, fluorescence intensity. purified CapD enzyme, fluorescence intensity read-out; stronger effect = lower value; some hits fall short of the stated cut. z-score (concentration not given with the values). hit rate 0.23% among 140,000. AID 492967, 2010;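 active means z-score under -4 in either of two replicates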;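 further: stock transfer was 100 nL into about 40 µL; score is relative to mean and spread of the plate; one replicate is shown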
# Starred values were filed as active, the others as inactive; nt = not tested or not shown. No enrichment for hits (roughly 0.37% active in at least one column).
SMILES,AID504770,Ba CapD inh
NCCC(=O)NCCc1cnc[nH]1,nt,-0.48
COc1ccc2c(Cl)c(C(=O)NN=C3CCN(C)CC3)sc2c1,0.7,nt
CN(C)c1cc(C(=O)NC(C)(C)C)nc(N(C)C)n1,nt,9
CCCCC(C(=O)N1CCCCC1)N1C(=O)c2ccccc2C1=O (configuration not stated),-0.55,0.075
O=C(CCCO)N/N=C/c1csc([N+](=O)[O-])c1,nt,-0.23
O=C(N1CCN2CCCC2C1)C(F)(F)C(F)(F)C(F)(F)C(F)(F)F (configuration not stated),-0.5,0.02
O=C(CCCN1C(=O)/C(=C\c2cccs2)SC1=S)Nc1ccc(O)cc1,0.35,-0.43
Clc1ccc(CSCc2ccc(-c3csnn3)cc2)cc1,-0.7,-0.15
CSC1=C(C#N)C(c2ccc(Cl)cc2)C(C(=O)OC(C)(C)C)=C(C)N1 (configuration not stated),nt,4.5
FC(F)(F)c1cccnc1-n1cncn1,-0.15,0.21
CCS(=O)(=O)c1ccc2oc(C)nc2c1,0.05,nt
COC(=O)Cc1cc(=O)n2[nH]cnc2n1,0.35,0.45
C/[N+]([O-])=C\C1C(=O)CC(C)(C)CC1=O,-0.7,-0.89
CCCCn1c(COC)nc2ccccc21,-0.7,-0.26
COC(=O)Cn1c(CCS(=O)(=O)c2ccc(C)cc2)nc2ccccc21,-1.6,0.54
COC(=O)c1cn(C)c2ccc(S(=O)(=O)N(C)C3CCCCC3)cc2c1=O,0.1,0.62
Cc1nnc(SCC(=O)Nc2ccccc2S(=O)(=O)N(C)C2CCCCC2)n1-c1ccccc1,-0.1,nt
Nc1c(C(=O)Nc2ccc(Cl)cc2)sc2nc3c(cc12)C(=O)CCC3,nt,-0.31
O=C(O)c1cc2ccccc2s1,nt,0.2
CO/N=C(/CS(=O)(=O)c1ccc(Cl)cc1)c1ccc(Cl)cc1,nt,0.01
CC(C)c1cccc(C(C)C)c1NC(=O)COC(=O)/C=C/c1ccco1,-0.85,-1.1
CCN1CSC(=S)N(CC)C1,-2.5*,0.22
COc1ccc(N2C(=O)/C(=C/c3ccccc3OC)N=C2c2ccc(OC)c(OC)c2)cc1Cl,nt,-0.56
Cc1ccccc1NC(=O)Nc1c(C)n(-c2ccccc2)c(=O)n1C,-0.65,-0.47
CCOC(=O)c1ccc2c(c1)c(C)c(C)n2C,-1.5,2.8
COc1ccc(Cl)cc1N(CC(=O)NCc1ccccn1)S(=O)(=O)c1ccc(C)c([N+](=O)[O-])c1,nt,0.035
CC(C)=C1C(=O)Nc2ccc(S(=O)(=O)N3CCc4ccccc43)cc21,0.35,0.15
Fc1ccc(Cn2c3ccccc3c3nc4ccccc4nc32)cc1,nt,1.6
COc1ccc(Nc2[nH]nc(NC(=O)CC3CC4CCC3C4)c2C#N)cc1 (configuration not stated),-0.3,nt
CCN(CC)c1ncnc2c1cnn2-c1ccccc1,-0.45,-0.35
Fc1ccccc1Cn1cnc2ccccc21,-0.8,0.76
Cc1ccccc1NC1CC(C)N(C(=O)c2cccc(F)c2)c2c(C)cccc21 (configuration not stated),nt,-0.63
CCCCCCCc1ccc(-c2c(C#N)c(C)nc3c2C(=O)c2ccccc2-3)cc1,nt,-0.7
Brc1ccc(OCCn2cnc3ccccc32)cc1,0.7,0.38
N#CC(=C1CCCCC1)c1nc(-c2ccccc2)cs1,nt,-0.56
CC(C)N1CC(COc2ccccc2)OC1=O (configuration not stated),-0.1,0.035
Cc1csc(NC(=O)CSc2nnc(CCNC(=O)c3ccc(Cl)c(Cl)c3)n2C)n1,1.5,-0.53
CCOC(=O)C(=CNc1nc(-c2ccc(C)cc2)cs1)C(=O)OCC,nt,21
CCCNC(=O)c1cc(S(=O)(=O)N2CCc3ccccc32)cn1C,-0.7,0.21
O=C(Cc1ccccc1)Nc1nnc(-c2ccco2)o1,-1.6,nt
CCCc1ccc(S(=O)(=O)NC(Cc2ccccc2)C(=O)NC2CCCCC2)cc1 (configuration not stated),nt,0.28
CCCS(=O)(=O)c1c(S(=O)(=O)CCC)c2cc(-c3ccncc3)ccn2c1C(=O)N/N=C/c1cccc(F)c1,nt,-0.44
O=C(NCc1ccccc1)c1cc2c(=O)c3ccccc3oc2nc1C(F)(F)F,nt,1
O=C(NNC(=O)c1ccc(Cn2cnc(Cl)c2Cl)o1)c1csc(-c2cnccn2)n1,nt,-0.67
CCN1C(=O)C(C)S/C1=N\S(=O)(=O)c1ccc(F)cc1 (configuration not stated),1.4,nt
O=C(Nc1nc2c(s1)COc1ccccc1-2)c1ccc2ncsc2c1,0.25,nt
N#CC(c1ccc2c(c1)OCO2)N(Cc1ccccc1)C(=O)c1sc2ccccc2c1Cl (configuration not stated),-0.65,0.52
COc1ccccc1/C=N\NC(=O)c1ccccn1,0.5,-0.65
Cc1ccc(CSc2nc3c(c(Oc4cc(C)cc(C)c4)n2)CCCC3)cc1,nt,-0.1
CCOC(=O)Nc1ccc2c(c1)N(C(=O)CCN1CCOCC1)c1ccccc1CC2,0.05,0.21
COCCn1c(SCC(=O)c2c[nH]c3ccccc23)nc2ccccc2c1=O,2.6,nt
O=C(NCCCN1CCCC1=O)c1ccc2snnc2c1,-0.8,-0.47
Cc1ccc(CS(=O)(=O)Cc2ccc(C(=O)N3CCC4(CC3)OCCO4)o2)cc1,-0.7,-0.92
Cc1ccc(S(=O)(=O)NCc2nc3ccccc3[nH]2)cc1,-0.9,0.59
COCCOC(=O)C1=C(C)NC2=C(C(=O)CC(C)(C)C2)C1c1cc2c(cc1Br)OCO2 (configuration not stated),nt,9.4
CCOC(=O)/C(C#N)=C\c1ccc2c(c1)OCO2,1.8,0.17
COc1cc2c(cc1OC)C1(NCC2)C(=O)Nc2ccccc21 (configuration not stated),-0.15,nt
O=C1NC(=O)C(C2(C3C(=O)NC(=O)NC3=O)C(=O)Nc3ccccc32)C(=O)N1,nt,-0.055
Oc1ccccc1C=Nc1n[nH]c2ccccc12,-0.7,2.2
COCCNC(=O)c1ccc(-n2cc(-c3ccncc3)cn2)cc1,nt,5.2

# The results go on:
SMILES,AID504770,Ba CapD inh
C=CCn1c(/C=C/C=C2N(CC)c3cc(Cl)c(Cl)cc3N2CC)[n+](CCCS(=O)(=O)[O-])c2cc(Cl)c(Cl)cc21,nt,-0.34
Cc1ccccc1-n1c(O)c(C2=c3cc(Br)ccc3=NC2=O)sc1=S,nt,-0.15
CN1CCN(c2nc3c(c(=O)n(C)c(=O)n3C)n2Cc2ccc(Cl)c(Cl)c2)CC1,nt,0.18
c1ccc(-n2cnnc2SCc2cn3ccccc3n2)cc1,-0.2,nt
Cc1ccc(-c2cc(C(F)F)n3ncc(C(=O)NCC4CCCO4)c3n2)cc1 (configuration not stated),0.3,nt
Cc1noc(C)c1CCC(=O)O,0.7,0.21
COC(=O)c1ccc(COC(=O)c2c3c(nc4ccccc24)CCCC3)o1,-1.1,nt
CC(=O)N(c1ccccc1)c1nc(CSc2nncn2-c2ccccc2)cs1,-0.5,nt
O=C(NCC(c1cccs1)N1CCOCC1)c1ccc(Cl)c(S(=O)(=O)N2CCOCC2)c1 (configuration not stated),0.45,nt
Cc1ccc(C(=O)Nc2nnc(SCC(=O)N3CCCc4ccccc43)s2)cc1,0.05,0.79
CCS(=O)(=O)N1CCN(c2nc(-c3ccccc3)ns2)CC1,1.4,0.79
CCOC(=O)Cn1nc(C(F)(F)F)cc1C,-0.95,-0.045
CCOC(=O)c1c(C)nn(-c2ncccc2NC(=S)NC(=O)c2ccccc2)c1C,nt,-0.11
Cc1ccc(-n2c(C)cc(/C=C3\SC(=O)N(C)C3=O)c2C)cc1,-1.1,-0.13
NC(=O)C1CCN(C(=O)OCC(F)(F)F)CC1,-1.1,nt

# Single records, from the list above.
# Oc1ccccc1C=Nc1n[nH]c2ccccc12 across the screens: AID504770 = -0.7; Ba CapD inh = 2.2
# CC(=O)N(c1ccccc1)c1nc(CSc2nncn2-c2ccccc2)cs1 across the screens: AID504770 = -0.5; Ba CapD inh = nt

# Gathered by group: the entries above containing a tert-butyl group (2)
SMILES,AID504770,Ba CapD inh
CN(C)c1cc(C(=O)NC(C)(C)C)nc(N(C)C)n1,nt,9
CSC1=C(C#N)C(c2ccc(Cl)cc2)C(C(=O)OC(C)(C)C)=C(C)N1 (configuration not stated),nt,4.5

# Additional results follow:
SMILES,AID504770,Ba CapD inh
Cc1ccc(OCc2nnc(SCC(=O)c3ccccc3)n2-c2ccccc2)c2c1CCC2,nt,0.12
Cc1ccc(-c2cn3nc(N4CCCC(C(=O)O)C4)sc3n2)cc1 (configuration not stated),-0.55,-0.24
CN(c1ccc(Br)cc1)c1nc(=O)c2cccnc2s1,1.5,0.81
COc1ccc(Cl)cc1C(=O)N/N=C/c1cc(C)n(-c2cccc(C(F)(F)F)c2)c1C,nt,0.66
CN1CCN(/C(=C\C#N)c2ccc(F)cc2)CC1,-0.9,nt
C=CCN1C(=O)C2(c3ccccc31)c1c(oc3ccccc3c1=O)C(=O)N2CCOC (configuration not stated),0.95,0.015
O=C(O)CC(c1ccc(O)cc1)N1Cc2ccccc2C1=O (configuration not stated),-0.5,-0.12
CCCCn1cnc2c(sc3nc4c(cc32)COC(C)(C)C4)c1=O,-0.55,3.9
O=C(CSC1CCS(=O)(=O)C1)Nc1ccccc1-c1ccccc1 (configuration not stated),0.45,nt
C(=N\N1CCN(c2ccccn2)CC1)/C1=C(N2CCOCC2)C(=C/c2ccccc2)/CC1,0.3,nt
O=C(CSc1ncn[nH]1)c1cccs1,-0.5,-0.24
O=C(CNC(=O)c1ccccc1Cl)N/N=C/c1ccc([N+](=O)[O-])s1,nt,-0.26
CN(CCNC(=O)c1cc2c(s1)-c1ccccc1OC2)C1CCCCC1,-0.65,74
O=C(Nc1cccn(Cc2ccc(Cl)c(Cl)c2)c1=O)Oc1cccnc1,nt,1.9
O=C1Nc2ccccc2SC1c1ccccc1 (configuration not stated),nt,0.39

# 3 structures already listed, sorted by count of non-hydrogen atoms, lowest first:
SMILES,AID504770,Ba CapD inh
C/[N+]([O-])=C\C1C(=O)CC(C)(C)CC1=O,-0.7,-0.89
CCCCn1c(COC)nc2ccccc21,-0.7,-0.26
CCCCn1cnc2c(sc3nc4c(cc32)COC(C)(C)C4)c1=O,-0.55,3.9

# Next section
SMILES,AID504770,Ba CapD inh
CC(OC(=O)c1ccc(S(=O)(=O)C(F)F)cc1)C(N)=O (configuration not stated),0.2,nt
COc1cc(/C=C/C(=O)O)ccc1OCC(=O)N1CCN(CC(=O)NC(C)(C)C)CC1,-0.5,nt
CCCc1oc2c(cc(NS(=O)(=O)c3ccc(OCC)cc3)c3ccccc32)c1C(=O)OCC,nt,8
Cc1ccc(S(=O)(=O)NNC(=O)/C=C/c2ccc(Cl)cc2Cl)cc1,nt,-0.035
O=C(O)CCNc1ccc(Cl)cc1,nt,0.33
O=C(CC(CC(=O)N1CCN(C/C=C/c2ccccc2)CC1)c1ccc(Br)cc1)C1CC1 (configuration not stated),nt,-0.61
COc1ccc(N=Cc2cc(C=Nc3ccc(OC)cc3)c(S(=O)(=O)C(C)(C)C)s2)cc1,-0.2,0.52
Cc1ccc(/C=C2\SC(=O)N(CNc3c(C)cc(Br)cc3C)C2=O)o1,nt,-1
CCSC(=O)Nc1cc2c(=O)c3ccccc3oc2nc1C(F)(F)F,nt,0.22
O=C(OCc1ccccc1)N1CN(Cc2ccccc2)Cc2c1oc1ccccc1c2=O,-0.85,-0.055
COc1ccc(CCN2C(=O)c3ccccc3C(C(=O)O)C2c2ccccc2O)cc1OC (configuration not stated),0.75,0.45
CCc1ccc(NC(=O)C2COc3ccccc3O2)cc1 (configuration not stated),nt,-0.2
OCCOc1ccc(Br)cc1OCCO,-0.95,0.015
CC(=O)O/N=C1/SC(=Nc2ccc(Cl)cc2)C2=C1N(C)CC2,0.05,nt
O=C(NNC(=S)Nc1ccccc1)c1cccnc1,nt,-0.89

# Three entries picked at random from those above:
SMILES,AID504770,Ba CapD inh
OCCOc1ccc(Br)cc1OCCO,-0.95,0.015
O=C(OCc1ccccc1)N1CN(Cc2ccccc2)Cc2c1oc1ccccc1c2=O,-0.85,-0.055
COc1ccc(N=Cc2cc(C=Nc3ccc(OC)cc3)c(S(=O)(=O)C(C)(C)C)s2)cc1,-0.2,0.52

# Following part.
SMILES,AID504770,Ba CapD inh
COc1ccc(-c2nnc(N(C)C(=O)C3CCOC3)s2)cc1 (configuration not stated),-0.8,nt
O=C(OCCCN1C(=O)c2cccc3c(N4CCOCC4)ccc(c23)C1=O)c1cc([N+](=O)[O-])cc([N+](=O)[O-])c1,nt,-0.74
Cc1cc(C)cc(NC(=O)C2COc3ccccc3O2)c1 (configuration not stated),nt,-0.16
O=[N+]([O-])c1cc(COc2ccc(F)cc2)ccc1Sc1ccc(Cl)cc1,nt,0.065
CSc1nnc2c(n1)OC(c1cccs1)Nc1ccccc1-2 (configuration not stated),nt,0.14
CC(C)Oc1cccc(C(=O)NCC2CCCO2)c1 (configuration not stated),-0.75,0.2
CCCN1CCC(N(C(=O)CCC(=O)NCCc2ccccc2)C2CC2)CC1,nt,-0.1
COc1cc(/C=N/O)ccc1OCc1ccc(Cl)cc1,-1.2,-0.49
Cc1oc(-c2ccc(Cl)cc2)nc1CSCC(=O)N1CCc2ccccc21,0.85,-0.29
CC(=O)Nc1cccc2nc(C)sc12,1.4,-0.095
CCOC(=O)c1c(C)oc2c1c(C=NCCc1c[nH]c3ccccc13)c(O)c1ccccc12,-0.65,6
COC(=O)CNC(=O)c1cc2c(C)nn(-c3ccc(Cl)cc3)c2s1,0,nt
CS(=O)(=O)c1ccc(NCC(=O)Nc2ccc(F)c(Cl)c2)cc1,-0.75,nt
O=C(CSc1ccccn1)Nc1ccc(-c2ccc(NC(=O)CSc3ccccn3)cc2)cc1,1,0.31
CCOc1cccc(NC(=O)C2CC(=O)N(C)C(=Nc3cccc(C(F)(F)F)c3)S2)c1 (configuration not stated),nt,-0.12
O=C(O)c1cccc(NC(=O)c2cn(-c3ccccc3)nc2-c2cc3ccccc3o2)c1,-0.4,nt
O=C(O)C1CCN(C(=O)c2ccc3nsnc3c2)CC1,-0.5,-0.49
N#Cc1cnc(Sc2nnc(-c3ccc(Cl)cc3)n2Cc2ccccc2)nc1N,-1.4,1
